# STK33 inh: inhibitors of human STK33 kinase; purified STK33, MBP phosphorylation, ADP-Glo luminescence; inhibition, % at 10 µM; hit rate 0.073% among 320,000; AID 2661;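 active means inhibition at or above 25%, using the most active replicate where run in duplicate; inactive means inhibition below 25%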
# Target sequence (Q9BYT3 whole entry, looked up): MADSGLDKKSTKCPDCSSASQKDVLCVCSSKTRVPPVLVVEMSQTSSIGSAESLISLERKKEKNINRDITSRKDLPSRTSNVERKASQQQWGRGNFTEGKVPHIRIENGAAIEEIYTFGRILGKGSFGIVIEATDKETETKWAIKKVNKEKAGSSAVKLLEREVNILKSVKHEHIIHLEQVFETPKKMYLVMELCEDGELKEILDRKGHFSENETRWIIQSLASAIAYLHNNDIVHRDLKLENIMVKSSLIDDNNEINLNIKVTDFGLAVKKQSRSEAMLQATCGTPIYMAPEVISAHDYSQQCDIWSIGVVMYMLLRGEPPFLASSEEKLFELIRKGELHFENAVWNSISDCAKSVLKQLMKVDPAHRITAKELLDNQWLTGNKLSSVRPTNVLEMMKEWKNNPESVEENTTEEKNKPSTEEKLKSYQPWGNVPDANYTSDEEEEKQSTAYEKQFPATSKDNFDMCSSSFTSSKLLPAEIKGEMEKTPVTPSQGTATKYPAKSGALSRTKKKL
# Starred values were filed as active, the others as inactive; & = joins results of further samples. The list is partial, and most or all hits are left out here.
STK33 inh	structure
-0.4	O=C1NC(=O)C(c2cccs2)(c2cccs2)N1
0.9	CC1(OC(=O)CCc2ccccc2)C(=O)C=C2C=C(c3ccc(C#N)cc3)N(C3CCCC3)C=C2C1=O (configuration not stated)
-0.1	Nc1c(C(=O)NCc2ccco2)c2nc3ccccc3nc2n1CCc1ccccc1F
0.7	O=C(Nc1ccccc1)c1ccc(NCCN2CCOCC2)c(S(=O)(=O)N2CCOCC2)c1
0.4	CCc1ccccc1N1CN(Cc2cccnc2)CNC1=S
-2.9	CCN(CC)CCNC(=O)CS(=O)Cc1nc(-c2ccccc2Cl)oc1C (configuration not stated)
2.1	O=C(Nc1cc(F)ccc1F)C1CCN(S(=O)(=O)c2cccc3nonc23)CC1
-0.4	COc1ccccc1N(C)S(=O)(=O)c1ccc(C(=O)OCC(=O)Nc2cc(C)on2)cc1
-1.4	COc1ccc(C(CC(=O)O)NC(=O)Cc2ccccc2)cc1OC (configuration not stated)
-1.0	COc1ccc(-c2nnn(Cc3nn[nH]n3)n2)cc1OC
-0.5	Cc1cccc(N2CCN(C(=O)c3ccc(NC(=O)C4CCCO4)cc3)CC2C)c1 (configuration not stated)
-0.5	CC(=O)Nc1ccc(NC(=O)CCCCCn2nnc3ccccc3c2=O)cc1
-0.3	CCOC(=O)c1ccccc1C(=O)N1CCOCCOCCOCC1
-1.7	Cc1cc2oc(=O)cc(CN3CCOCC3)c2c(C)c1Cl
0.7	Cc1ccc(C)c(S(=O)(=O)Nc2cc3c4c(c2)CCC(=O)N4CCC3)c1
-0.4	COc1ccc(C(=O)NN/C(=N/S(=O)(=O)c2ccc(C)cc2)c2ccccc2)cc1
2.7	c1ccc2c(c1)CNC1(CCCCC1)C2
-0.2	CCCCN=C1NN=C(c2cccc([N+](=O)[O-])c2)CS1
4.3	CS(=O)(=O)c1ccc2nc(NC(=O)c3cccc([N+](=O)[O-])c3)sc2c1
-1.6	O=C(O)CNC(=O)/C(=C/c1ccco1)NC(=O)/C=C/c1ccccc1
-1.5	Cc1ccc(C(=O)COc2cccc(NC(=O)c3ccco3)c2)cc1
-1.5	O=C(COc1ncnc2ccccc12)Nc1cc([N+](=O)[O-])ccc1F
-1.2	Cn1c(NC(=O)C2CCCC2)cc(=O)n(C)c1=O
0.2	O=C(O)C1CCCCC1C(=O)Nc1nccs1 (configuration not stated)
-1.4	CCn1c(=S)sc2c(=O)n(CC(=O)Nc3cc(OC)ccc3OC)c(C)nc21

# Sorted by number of heavy atoms (lowest first): 3 of the compounds above
STK33 inh	structure
2.7	c1ccc2c(c1)CNC1(CCCCC1)C2
-0.4	O=C1NC(=O)C(c2cccs2)(c2cccs2)N1
-1.0	COc1ccc(-c2nnn(Cc3nn[nH]n3)n2)cc1OC

# The main list resumes, repeating the four entries before the break.
STK33 inh	structure
-1.5	O=C(COc1ncnc2ccccc12)Nc1cc([N+](=O)[O-])ccc1F
-1.2	Cn1c(NC(=O)C2CCCC2)cc(=O)n(C)c1=O
0.2	O=C(O)C1CCCCC1C(=O)Nc1nccs1 (configuration not stated)
-1.4	CCn1c(=S)sc2c(=O)n(CC(=O)Nc3cc(OC)ccc3OC)c(C)nc21
-0.5	CCN(CC)CCCn1c(=S)[nH]c2ccccc2c1=O
-2.2	Cc1ccc(NC(=O)c2c(C)nn(-c3ccccc3)c2Cl)c(C)c1
-1.5&-0.3	c1ccc(-c2nc3ccccc3s2)nc1
-2.2	O=C(O)/C(=C\c1ccco1)NC(=O)c1cccc2ccccc12
-4.0	COC(=O)C1=C(C(=O)OC)[C@@H]2N(C)c3ccc(OC)cc3[C@@]23C[C@@H](C(=O)OC)N(C(=O)NCCBr)C3=N1
-0.9	S=c1[nH]nc(COc2ccccc2)n1/N=C/c1cccc(Br)c1
-0.3	COc1ccc(C(C)=O)cc1CN1C(=O)NC2(CCCCC2C)C1=O (configuration not stated)
-0.2	CC1(C)CC(=O)C(N=Nc2c(Cl)cc(Cl)cc2Cl)=C(O)C1
0.7	COc1ccc(CN2CC(C(=O)NCCN3CCOCC3)CC2=O)cc1 (configuration not stated)
-1.4	COc1ccccc1N1CCN(CC(=O)Nc2ccc(CN3CCCCC3)cc2)CC1
-0.1	Cc1ccc(C(C)C)c(OCC(=O)NN=C2CCCCCCC2)c1
-0.7	Cc1cc2oc(=O)cc(CN(C)Cc3ccccc3)c2cc1C(C)C
-0.3	CC(=O)Nc1c(F)c(F)c(F)c(F)c1F
0.7	Cc1ccc2c(c1)N(CCC(=O)NC1CC1)C(=O)C(C)O2 (configuration not stated)
0.3	O=S(=O)(c1ccccc1)N1CCC(n2cnc3ccccc32)CC1
0.7	O=C1CN(C(=O)/C=C/c2ccc(Cl)cc2)c2ccccc2N1
0.0	COc1cccc(NC(=O)c2sc(Cl)nc2C)c1
-2.4	CCCN1CCCC[C@H]1C(=O)Nc1c(C)cccc1C
-2.5	OCC[C@@H]1C[C@H](O)[C@@H](O)[C@]2(CCc3ccccc3CO2)O1
-0.1	CCN1CCN(S(=O)(=O)c2ccc(Cl)c(C(=O)Nc3ccccc3N3CCCCC3)c2)CC1
-2.0	COc1ccc(NC(=O)c2ccc(Oc3ncccn3)cc2)cc1
-0.2	CC(=O)Nc1ccc(S(=O)(=O)N(C)CC(=O)OCC(=O)NCc2ccco2)cc1
-1.1	COC(=O)[C@]1(C)CCC[C@@]2(C)C3CC[C@@]4(C)C[C@]3(CC[C@H]12)C[C@H]4O (some centres not stated)
-1.1	O=C(Nc1cc2c(cc1C(=O)O)OCCCO2)c1ccc(F)cc1F
-4.9	COc1ccc(/C=C/C(=O)NCc2cn(C)nc2C)cc1COc1ccc(Cl)cc1Br
0.1	COc1ccc(/C(C)=N/NC(=O)C2CC2)cc1
-0.2	COc1ccccc1CNC(=O)CSc1ccsc1[N+](=O)[O-]
-0.2	O=C(NCC1CCCCC1)C1CCCN(C(=O)NC2CCCCC2)C1 (configuration not stated)
0.0	Cc1cc(C)c2c(=O)[nH]c(SCc3ccccc3)nc2n1
-2.9	CN1CCN(C(=O)/C(=C\c2cccnc2)NC(=O)c2cccc(Br)c2)CC1
0.6	CCC(/C=N/Nc1ccc(S(=O)(=O)N2CCCC2)cc1[N+](=O)[O-])CC
-2.6	COC(=O)c1cc(NC(=O)c2c(-c3c(Cl)cccc3Cl)noc2C)ccc1N1CCOCC1
0.3	COC(=O)[C@@H](NC(=O)Nc1cccc(Br)c1)C(C)C
-2.3	COc1ccc(OC)c(NC(=O)CSc2ncnc3c2cnn3-c2ccccc2Cl)c1
0.8	Nc1ncc(Br)cc1S(=O)(=O)NCCC(=O)NCCc1ccc(Cl)cc1
-0.7	Cc1cccc2sc(N(CCN(C)C)C(=O)C3CCN(S(=O)(=O)c4cccs4)CC3)nc12
1.1	Cc1cc(-c2ccccc2)nc(N/N=C/c2ccccc2)n1
-1.0	CCN(CC)c1ccc(NC(=O)CCS(=O)(=O)c2ccc(Br)cc2)c(C)c1
-0.4	O=S(=O)(Nc1ccc(-c2nc3cccnc3s2)cc1)c1cccs1
-0.3	O=C(NC1CCCC1)C(c1ccncc1)N(C(=O)c1csnn1)c1cccc(Cl)c1 (configuration not stated)
-0.9	Cc1ccc(-c2nnn(CC(=O)NCCc3ccc4c(c3)OCO4)n2)o1
0.6	O=C(N/N=C/C1CC2CCC1C2)C1CC1 (configuration not stated)
-0.3	O=C1OCC2=C1C(c1ccccc1)CC(=O)N2c1cccc(F)c1 (configuration not stated)
1.0	CCC(=O)N1CCc2cc(Br)cc(S(=O)(=O)NCc3ccccc3OC)c21
-1.8	O=C(CSc1nn(-c2ccc(F)cc2)c(=S)s1)NC1CCS(=O)(=O)C1 (configuration not stated)
0.3	COc1ccccc1C(=O)NNC(=O)c1cccc([N+](=O)[O-])c1
2.4	CCc1c(C(=O)O)[nH]c2ccc(Br)cc12
1.6	O=C(NCc1ccccc1)c1noc2c1CCCCC2
-1.5	CCCCCc1nnc(NC(=O)OCCC)s1
-1.6	O=C(Nc1ccccc1)c1ccc(S(=O)(=O)N(CCO)CCO)cc1

# Shown in CSV form: 2 of the compounds above
canonical_smiles,STK33 inh
CN1CCN(C(=O)/C(=C\c2cccnc2)NC(=O)c2cccc(Br)c2)CC1,-2.9
CCC(/C=N/Nc1ccc(S(=O)(=O)N2CCCC2)cc1[N+](=O)[O-])CC,0.6

# Back to the main list with the seven entries that preceded the break.
STK33 inh	structure
1.0	CCC(=O)N1CCc2cc(Br)cc(S(=O)(=O)NCc3ccccc3OC)c21
-1.8	O=C(CSc1nn(-c2ccc(F)cc2)c(=S)s1)NC1CCS(=O)(=O)C1 (configuration not stated)
0.3	COc1ccccc1C(=O)NNC(=O)c1cccc([N+](=O)[O-])c1
2.4	CCc1c(C(=O)O)[nH]c2ccc(Br)cc12
1.6	O=C(NCc1ccccc1)c1noc2c1CCCCC2
-1.5	CCCCCc1nnc(NC(=O)OCCC)s1
-1.6	O=C(Nc1ccccc1)c1ccc(S(=O)(=O)N(CCO)CCO)cc1
-2.3	O=C(NC1CCN(S(=O)(=O)c2ccc(F)cc2)CC1)C1CCCCC1
-0.1	CCN1C(=O)/C(=C2\SC(=S)N(NC(=O)c3cccnc3)C2=O)c2ccccc21
0.2	O=S(=O)(c1cccc(NC(=S)NCc2ccco2)c1)N1CCOCC1
-0.5	CC1=C(C(=O)NCCN2CCN(C)CC2)C2(CCC(C)CC2)OC1=O (configuration not stated)
2.1	CCOc1ccc(N2C(=O)c3ccccc3C2O)cc1 (configuration not stated)
1.9	CC(C)C1=C2OC(N)=C(C#N)C(C#N)=C2C(C)CC1 (configuration not stated)
-2.5	O=C(Nc1ccc(Cl)cc1)N1CCSC1=NCc1ccccc1
0.3	CCCc1cc(=O)oc2cc(OCC(=O)NC(Cc3c[nH]c4ccc(O)cc34)C(=O)O)c(Cl)cc12 (configuration not stated)
-0.1	O=C(O)COc1ccccc1/C=N/NC(=O)CSc1nnc(SCc2cccc3ccccc23)s1
-1.1	CCCOc1ccc(N/C=C/C(=O)C(C)(C)C)cc1
-1.6	Cc1cc(=O)n(C)c(=O)n1CCCNc1ccccc1
1.1	Fc1cccc(CSc2nc3ncc(Cl)cc3[nH]2)c1
-0.2	S=C(Nc1cccc(Cl)c1Cl)N1CCCC1
-0.3	N#Cc1cnn(-c2ncnc3sc4c(c23)CCCC4)c1N
0.7	COc1ccccc1NC(=O)CN(Cc1ccco1)C(=O)c1cncc(Br)c1
-1.8	COc1ccc(CCNC(=O)C2CCC(=O)N2Cc2ccccc2Cl)cc1OC (configuration not stated)
-1.7	CCn1cc(S(=O)(=O)CC(=O)NC2CCCCC2)c2ccccc21
-0.4	Cc1ccnc2nc(C(=O)OCC(=O)NCCc3ccccc3)nn12
-1.6	Cc1c(Nc2nc(-c3ccc(Cl)cc3)cs2)c(=O)n(-c2ccccc2)n1C
-2.8	O=C(CCc1c[nH]c2ccccc12)NCC1COc2ccccc2O1 (configuration not stated)
-2.3	O=C(CO/N=C/c1ccccc1OC(F)F)NC1CCCC1
-3.6	O=C(c1ccc(=O)n(Cc2ccccc2)n1)N1CCN(C/C=C/c2ccccc2)CC1
-0.1	COC(=O)c1cc(S(=O)(=O)N2CCCCCC2)cn1C
1.8	CN1C(=O)/C(=C\C=C2/CCCN2C)N(C)C1=S
-0.1	Cc1cc(OC(=O)c2cc(Cl)ccc2Cl)c([N+](=O)[O-])c(=O)[nH]1
-2.2	O=C(CN1C(=O)CCSc2ccccc21)Nc1ccc(F)cc1
5.3	CCOC(=O)C1=C(CS(=O)(=O)c2ccccc2)NC(=O)NC1c1ccccc1 (configuration not stated)
-0.9	C=CCOc1ccc(/C=C/C(=O)OCC(=O)N(C)C2CCS(=O)(=O)C2)cc1 (configuration not stated)
-1.0	CC(=O)Nc1ccc(S(=O)(=O)NCC2CCC(C(=O)NCCCOC(C)C)CC2)cc1 (configuration not stated)
-1.0	CCOc1ccc(-n2c(SC(C)C)nc3c(c2=O)SCC3)cc1
1.0	Cc1ccc(NC(=O)C2CC(=O)n3c(nc4ccccc43)N2)cc1 (configuration not stated)
-0.3	COC(=O)CCN(C(=O)c1ccc(N2CCCC2)c([N+](=O)[O-])c1)c1ccccn1
-1.2	CCN1CCSc2ccc(C(=O)NCc3ccc(OC(C)C)cc3)cc21
-1.0	CN(CCc1ccccn1)C(=O)CCC1CCCN(Cc2ccccc2OC(F)F)C1 (configuration not stated)
-3.7	CC(=O)N1CCc2cc(Br)cc(S(=O)(=O)N3CCC(C(=O)O)CC3)c21
1.1	Cc1cc(=O)oc2c(C)c(OCC(=O)N3CC[C@@]4(O)CCCC[C@H]4C3)ccc12
0.2	CC(C)c1c(C(=O)N/N=C/c2ccncc2)nnn1-c1nonc1N
-1.4	CC1(C)NC(=O)N(CC(O)COc2ccc(-c3ccccc3)cc2)C1=O (configuration not stated)
-0.8	Cc1ccccc1CSc1nsc(N)n1
-0.2	Cc1cccc2sc(NC(=O)CCn3cccc3)nc12
-0.9	COc1ccc(C(=O)N2CC(=O)Nc3ccccc32)cc1S(=O)(=O)N1CCCC1
-1.3	COc1ccc(OC)c(CN2CCN(C(=O)c3cccc(S(=O)(=O)Nc4ccccc4OC)c3)CC2)c1
0.2	CN1CCN(S(=O)(=O)c2cccc(C(=O)N(Cc3ccccc3)c3ccccc3)c2)CC1
-1.2	CCC(CC)NC(=O)Nc1ccccc1C
2.3	Cc1ccc(C)c(N2CCN(CCCNC(=O)Cn3cc4c(n3)CCCCC4)CC2)c1
0.3	Cc1ccc(/C([O-])=C(/C(=S)NCc2ccco2)[n+]2ccccc2)cc1[N+](=O)[O-]
-0.9	COc1ccc(CCNc2nnc(C)c(=O)[nH]2)cc1OC
0.5	O=C(Nc1ccccc1)C1=C[C@@H](C2CC2)C[C@@H](OCc2ccc(CO)cc2)O1
-0.9	C=CCC1C=C(C)CC(CC=C)N1 (configuration not stated)
-0.5	O=C(CC(c1ccccc1)(c1ccccc1)c1ccccc1)N[C@@H](Cc1ccc(O)cc1)C(=O)O
-0.3	CCN1C(=O)c2ccccc2S(=O)c2ccc(C(=O)N3CCCCCC3)cc21 (configuration not stated)
-1.7	CCN(CC)C(=O)CSc1nc2cc3c(cc2c(=O)n1Cc1ccco1)OCO3

# Source: PubChem
